Rango dissoc inh: inhibition of RanGTP-driven Rango-importin beta dissociation; Potency, µM (highest dose often 46.1 µM), inactives show at the highest dose activity change, negative = inhibition; Biochemical FRET Rango-importin beta, RanGTP-induced dissociation; actives 0.071% (n = 340,000); O95149+P62826; active means falling FRET ratio curve, often poorly fitted, with flat reads before Ran was added; inconclusive means other falling curves, or compound fluorescence or quenching; inactive means flat or rising ratio curve;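 also: potency is read from the fitted curve at half-maximal effect; % of control where 0% means no effect; nearly all actives have a fitted effect of over 45% in size; -100% = wells without RanGTP and RCC1; the record marks most hits as doubtful in a second field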
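Quantitative HTS using a FRET biosensor: 0.1 uM Rango, 0.25 uM importin beta, 0.6 uM Ran, 2 mM GTP, 0.2 uM RCC1 final, PBS with DTT, Tween-20 and BSA. Post-read taken 45 min after Ran addition.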
GLA inh pH 4.5: inhibitors of human alpha-galactosidase A at pH 4.5; P06280; purified enzyme, 4-MU-alpha-Gal fluorescence, pH 4.5; activity change, negative = inhibition, % at 105 µM; 230,000 tested, under 10 active; AID 1467; inconclusive = small, poorly fitted or top-dose-only inhibition, or a rising curve; inactive = flat fitted curve, though single readings scatter; no compound was filed as active;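 also: 0% = full activity with enzyme and -100% = basal without enzyme; dose as in the result columns while the protocol names 77 µM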
Rango complex inh: Rango-importin beta binding inhibition | Q14974 | Rango CFP/YFP FRET sensor + importin beta, 45 min | Potency, µM (highest dose often 92.2 µM), for the others: at the top dose inhibition of complex formation | actives 0.031% (n = 340,000) | AID 540263; active = rising FRET ratio curve, often small or poorly fitted; inconclusive = mostly compound fluorescence or quenching in the first reads; inactive = flat curves in all reads;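 also: potency is read from the fitted curve at half-maximal effect; 0% = DMSO wells and 100% = buffer wells lacking importin beta; nearly all actives have a fitted effect of over 15% in size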
Target sequence (Q14974 whole entry, looked up): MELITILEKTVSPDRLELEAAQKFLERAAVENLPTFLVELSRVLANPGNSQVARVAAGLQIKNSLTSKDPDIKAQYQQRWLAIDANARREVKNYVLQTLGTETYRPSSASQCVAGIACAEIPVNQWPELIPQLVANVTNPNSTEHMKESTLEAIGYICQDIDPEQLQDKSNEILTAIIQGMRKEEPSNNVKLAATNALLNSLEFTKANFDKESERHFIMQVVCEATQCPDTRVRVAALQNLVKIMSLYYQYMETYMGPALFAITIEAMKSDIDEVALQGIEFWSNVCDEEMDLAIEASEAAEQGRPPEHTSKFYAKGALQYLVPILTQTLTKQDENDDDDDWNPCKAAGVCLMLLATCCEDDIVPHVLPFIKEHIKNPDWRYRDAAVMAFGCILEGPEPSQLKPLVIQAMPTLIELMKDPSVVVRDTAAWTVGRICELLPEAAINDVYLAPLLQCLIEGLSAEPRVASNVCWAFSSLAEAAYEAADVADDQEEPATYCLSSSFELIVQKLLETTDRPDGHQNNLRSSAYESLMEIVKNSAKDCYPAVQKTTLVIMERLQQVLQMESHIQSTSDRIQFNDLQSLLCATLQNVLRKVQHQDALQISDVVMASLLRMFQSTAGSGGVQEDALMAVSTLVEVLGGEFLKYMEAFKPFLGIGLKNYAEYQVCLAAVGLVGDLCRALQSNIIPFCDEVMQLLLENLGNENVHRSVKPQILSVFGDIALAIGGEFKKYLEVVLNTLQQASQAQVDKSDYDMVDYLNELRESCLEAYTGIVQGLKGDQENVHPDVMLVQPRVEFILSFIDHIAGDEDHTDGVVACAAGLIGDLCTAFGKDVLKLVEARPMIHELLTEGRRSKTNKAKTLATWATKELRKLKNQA
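Inhibition scored from the CFP 486 nm/YFP 530 nm FRET ratio 45 min after adding 0.125 microM importin beta to 50 nM Rango biosensor preincubated 5 min with compound (room temperature, PBS with DTT, Tween-20, BSA). No-importin wells as positive control.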
miR-21 FLuc: raises the signal of a miR-21 reporter; 340,000 tested, under 10 active; HeLa miR-21 FLuc reporter, luciferase, 48 h; Potency, µM (titrated, usually from 38.3 µM), for inactives: at the highest dose reporter change, positive = more light; active = well fitted rising curve with a large enough effect; inconclusive = small, poorly fitted or top-dose-only effect; inactive = no such curve, though single readings can be large or run the other way;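 also: % of control where 0% means no effect; miR-21 action dims this reporter so a rising signal means less miR-21 action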
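Compounds were titrated across several concentrations (up to approximately 40 uM) and incubated 48 hours with HeLa miR-21-FLuc reporter cells (miR-21 target sequence downstream of FLuc, endogenous miR-21). Readout was firefly luciferase luminescence after lytic detection reagent.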
An asterisk follows results filed as active; & = joins results of further samples; [ ] = another dose, or the depositor's remark.

The first 2 entries (preview)
Screening COc1cc(C(=O)N(C)CCOc2ccc(C)cc2)ccc1OC1CCN(C(C)=O)CC1 returned Rango dissoc inh -22.7%, Rango complex inh -0.1% and miR-21 FLuc -1.1%.
`O=C(CCn1nnc(-c2cccs2)n1)NCc1ccccc1Cl` gave Rango dissoc inh -3.4%, GLA inh pH 4.5 8.5, Rango complex inh 1.5% and miR-21 FLuc -3.6%.

The whole of this part (from the top)
Screening COc1cc(C(=O)N(C)CCOc2ccc(C)cc2)ccc1OC1CCN(C(C)=O)CC1 returned Rango dissoc inh -22.7%, Rango complex inh -0.1% and miR-21 FLuc -1.1%.
`O=C(CCn1nnc(-c2cccs2)n1)NCc1ccccc1Cl` gave Rango dissoc inh -3.4%, GLA inh pH 4.5 8.5, Rango complex inh 1.5% and miR-21 FLuc -3.6%.
CCN1CCN(c2ccc(S(=O)(=O)N3CCCCC3)cc2NC(=O)C(C)Oc2ccc(F)cc2)CC1 (configuration not stated) was read as Rango dissoc inh -26.4% and Rango complex inh 5.3%.
`CC(C)OCC(O)CS(=O)(=O)Cc1ccccc1` (configuration not stated) gave Rango dissoc inh 1.1%, GLA inh pH 4.5 -1.7, Rango complex inh -2.7% and miR-21 FLuc -0.5%.
`COc1nc(-c2ccccc2)ccc1-c1noc(COc2ccccc2)n1` gave Rango dissoc inh -3.8%, GLA inh pH 4.5 9.5, Rango complex inh -1.2% and miR-21 FLuc -13.8%.
Screening C=CCn1c(SCC(=O)/C(C#N)=C(\C)N)nc2sc(CC)cc2c1=O returned Rango dissoc inh -11.2%&6.7%, Rango complex inh -3.1%&-5.6% and miR-21 FLuc -5.0%.
Screening Cc1ccc(CNC(=O)C2CCC(=O)N(C3CCCC3)C2)c(F)c1F (configuration not stated) returned Rango dissoc inh -9.2%, Rango complex inh 2.6% and miR-21 FLuc -3.1%.
`S=C(NNc1ccnc2cc(Cl)ccc12)Nc1ccccc1Cl` gave Rango dissoc inh -13.5%, GLA inh pH 4.5 5.6, Rango complex inh -0.9% and miR-21 FLuc -5.4%.
`CC(=O)c1c(C)[nH]c(C(=O)CSc2nc3ccccc3n2C)c1C` gave Rango dissoc inh 1.5%, GLA inh pH 4.5 -7.6, Rango complex inh -1.0% and miR-21 FLuc 12.0%.
O=C(NCCCn1ccnc1)Nc1ccc2c(c1)OCO2 was read as Rango dissoc inh -5.7%, Rango complex inh 0.7% and miR-21 FLuc -45.1%.
Nc1nc(CN2CCN(c3ccccc3)CC2)nc(N2CCCc3ccccc32)n1 was read as Rango dissoc inh -11.4%, GLA inh pH 4.5 -4.0, Rango complex inh -0.4% and miR-21 FLuc -7.2%.
Cc1nnsc1S(=O)(=O)c1ccccc1 was read as Rango dissoc inh 15.2%, Rango complex inh 3.7% and miR-21 FLuc 0.2%.
For COc1cc(-c2cc(=O)c3c(C)cc(O)cc3o2)cc(OC)c1OC the results were Rango dissoc inh 2.1% and Rango complex inh 0.2%.
Screening COc1ccc(COC(=O)c2cccc(S(=O)(=O)N3CCCC3)c2)cc1F returned Rango dissoc inh 15.3%, Rango complex inh 0.1% and miR-21 FLuc 0.0%.
`CCN(CC)CCCn1c(C)cc2c(c1=O)C(c1ccccc1)C(C#N)=C(N)O2` (configuration not stated) gave Rango dissoc inh -13.1%, Rango complex inh 5.6% and miR-21 FLuc -1.6%.
For CN(CC(=O)NCc1ccccc1F)S(=O)(=O)c1ccc(Cl)cc1 the results were Rango dissoc inh 5.2%, Rango complex inh 1.8% and miR-21 FLuc -1.0%.
O=C(CO/N=C/c1ccccc1)Nc1c(F)c(F)c(F)c(F)c1F was read as Rango dissoc inh 0.0%, GLA inh pH 4.5 -11.3, Rango complex inh -1.2% and miR-21 FLuc -2.7%.
Screening Cc1ccc(CNC(=O)CN2C(=O)C3(OCCCO3)c3ccccc32)cc1 returned Rango dissoc inh -2.6%, GLA inh pH 4.5 -1.3, Rango complex inh -1.1% and miR-21 FLuc -0.9%.
CN1CCN(c2ccccc2NS(=O)(=O)c2ccc3c(c2)CCN3C(=O)C2CCC2)CC1 was read as Rango dissoc inh -5.2% and Rango complex inh -4.6%.
For Cc1ccccc1CCNC(=O)C1CCCN(c2cnccn2)C1 (configuration not stated) the results were Rango dissoc inh 3.6%, Rango complex inh -2.7% and miR-21 FLuc -5.2%.
For COc1cccc(NC(=O)CSc2nnc(-c3cccc(OC(C)C)c3)n2N)c1 the results were Rango dissoc inh -4.0%, GLA inh pH 4.5 -2.5, Rango complex inh 4.5% and miR-21 FLuc -28.3%.
Screening CCCCC(=O)Nc1ccc(C(=O)NCCc2ccccc2)cc1 returned Rango dissoc inh -11.9%, GLA inh pH 4.5 -0.5, Rango complex inh 0.7% and miR-21 FLuc -48.9%.
`Cc1ccccc1C(=O)Nc1nnc(CC(=O)N/N=C/c2cn(Cc3ccccc3)c3ccccc23)s1` gave Rango dissoc inh 19.7%, GLA inh pH 4.5 0.4, Rango complex inh -1.4% and miR-21 FLuc -14.5%.
COc1ccc(OC)c(NC(=O)c2cccnc2)c1 was read as Rango dissoc inh -2.9%, Rango complex inh -0.2% and miR-21 FLuc -3.4%.
For CCOC(=O)c1cnc2c(C)c(Cl)ccc2c1N1CCN(CC)CC1 the results were Rango dissoc inh -4.7%, Rango complex inh -0.4% and miR-21 FLuc 2.4%.
Cn1cc2cc(NC(N)=S)ccc2n1 was read as Rango dissoc inh 0.0%, GLA inh pH 4.5 1.6, Rango complex inh -3.3% and miR-21 FLuc 2.4%.
`O=C(c1cc2ccccc2oc1=O)N(Cc1ccccc1)CC1CCCO1` (configuration not stated) gave Rango dissoc inh 1.6%, GLA inh pH 4.5 -5.0, Rango complex inh 3.8% and miR-21 FLuc -7.3%.
`CN(CCOc1ccccc1)C(=O)CCc1c[nH]c2ccccc12` gave Rango dissoc inh 18.5%, Rango complex inh -1.5% and miR-21 FLuc -23.4%.
`O=C(CC(O)(C(F)(F)F)C(F)(F)F)Nc1ccc(Cl)c(Cl)c1` gave Rango dissoc inh -5.9%, GLA inh pH 4.5 -2.8, Rango complex inh -1.7% and miR-21 FLuc inconclusive.
O=C(NC1CCS(=O)(=O)C1)c1cccc(S(=O)(=O)N2CCCCCC2)c1 (configuration not stated) was read as Rango dissoc inh -1.7%, GLA inh pH 4.5 -4.3, Rango complex inh -1.9% and miR-21 FLuc -5.5%.
O=C(CN(Cc1cccs1)C(=O)CNS(=O)(=O)c1ccc(F)cc1)NCc1ccco1 was read as Rango dissoc inh 1.5%, GLA inh pH 4.5 1.1, Rango complex inh -5.6% and miR-21 FLuc -1.6%.
`C/C=C/C=C/C(=O)N1CC[C@]23c4ccccc4N[C@H]4N(C)c5cccc6c5[C@]42CCN([C@H]6C2OC2(C)C)[C@H]13` (some centres not stated) gave Rango dissoc inh -6.0%, GLA inh pH 4.5 0.9, Rango complex inh -0.7% and miR-21 FLuc 11.9%.
For Cn1c(-c2ccsc2)c(-c2cccs2)c2cc(-c3ccc4cc[nH]c4c3)ccc21 the results were Rango dissoc inh -2.3% and Rango complex inh 0.6%.
Oc1ccccc1-c1nc(/C=C/c2ccccc2)nn1-c1ccccc1 was read as Rango dissoc inh 1.5%, GLA inh pH 4.5 3.3, Rango complex inh 0.5% and miR-21 FLuc -26.6%&-23.7%.
For CCOC(=O)N1CCN(C(=O)c2ccc3nc(N4CCCCC4)sc3c2)CC1 the results were Rango dissoc inh -13.6%, GLA inh pH 4.5 2.7, Rango complex inh -0.6% and miR-21 FLuc -16.5%.
Screening O=C(O)c1nn(CC(=O)N(C2CCCCC2)C2CCCCC2)c(=O)c2ccccc12 returned Rango dissoc inh 16.4%, GLA inh pH 4.5 6.5, Rango complex inh 1.7% and miR-21 FLuc -2.0%.
Screening O=C(Nc1ccc(C(=O)N2CCN(c3ccc(Cl)cc3)CC2)cc1)C1=CSCCO1 returned Rango dissoc inh 0.1%, Rango complex inh inconclusive and miR-21 FLuc -2.7%.
Screening COc1ccccc1C(=O)NCCC(=O)N1CCN(C(C)=O)CC1 returned Rango dissoc inh -2.7% and Rango complex inh 1.8%.
Screening Cc1ccc(-c2nc3ccccc3c(=O)n2NC(=S)N(C)C)cc1 returned Rango dissoc inh -10.4%, GLA inh pH 4.5 -4.2, Rango complex inh -2.9% and miR-21 FLuc -2.3%.
CCCCNC(=O)CSc1nc2ccsc2c(=O)n1C1CCN(C(=O)OCC)CC1 was read as Rango dissoc inh 7.1%, GLA inh pH 4.5 -8.1, Rango complex inh 5.8% and miR-21 FLuc -7.4%.
Screening CC(NC(=S)NCCc1ccccc1)C(c1cccs1)N1CCN(Cc2ccccc2)CC1 (configuration not stated) returned Rango dissoc inh -22.9%, GLA inh pH 4.5 7.8, Rango complex inh -1.2% and miR-21 FLuc 24.9%.
`O=C(/C(=C/O)N=Nc1ccccc1)c1ccncc1` gave Rango dissoc inh 18.2%, GLA inh pH 4.5 -3.6, Rango complex inh -5.4% and miR-21 FLuc 6.8%.
`O=C(c1ccc([N+](=O)[O-])cc1)N1CCSC1c1ccccc1` (configuration not stated) gave Rango dissoc inh -1.1%, GLA inh pH 4.5 1.1, Rango complex inh 0.3% and miR-21 FLuc -3.2%.
`CCOC(=O)Cc1csc(NC(=O)/C=C/c2ccc(OC)cc2)n1` gave Rango dissoc inh -3.8%, GLA inh pH 4.5 -7.2[21.1 µM], Rango complex inh 1.2% and miR-21 FLuc 27.3%.
`CCN1C(=O)[C@H]2[C@@H](c3ccc(-c4ccc(Cl)c(Cl)c4)c(OC)c3)N[C@@](C)(C(=O)OC)[C@H]2C1=O` gave Rango dissoc inh 1.8% and Rango complex inh 0.1%.
CCOc1cc2c3c(c1)C1(C(=O)N3C(C)(C)CC2C)C(C#N)=C(N)N2C(=C1C#N)Nc1ccccc12 (configuration not stated) was read as Rango dissoc inh -28.1%, GLA inh pH 4.5 -6.3, Rango complex inh inconclusive and miR-21 FLuc 8.1%.
For COc1ccc(CNC(=O)COC(=O)CN2C(=O)COc3ccccc32)cc1 the results were Rango dissoc inh 29.1% and Rango complex inh 0.9%.
Screening Nc1ccc2c(c1)C(O)c1ccc(Cl)cc1-2 (configuration not stated) returned Rango dissoc inh 12.0% and Rango complex inh 0.1%.
Screening S=C(NCCc1ccc(Cl)cc1)NC1CCCC1 returned Rango dissoc inh 2.1%, GLA inh pH 4.5 -13.4, Rango complex inh -0.6% and miR-21 FLuc -19.2%.
`CCOC(=O)C1CCN(C(=O)CSc2ccc(Cl)cc2)CC1` gave Rango dissoc inh 2.1%, GLA inh pH 4.5 3.1, Rango complex inh 3.7% and miR-21 FLuc -10.3%.
CC(=O)N1CCc2cc3nc(C)cc(C)c3cc21 was read as Rango dissoc inh 5.3%, GLA inh pH 4.5 -3.4, Rango complex inh -2.8% and miR-21 FLuc -11.7%.
Screening O=C(Nc1ccc(S(=O)(=O)Nc2nccs2)cc1)c1cccc(S(=O)(=O)N2CCOCC2)c1 returned Rango dissoc inh 3.2%, GLA inh pH 4.5 6.0, Rango complex inh -0.5% and miR-21 FLuc 5.1%.
`CC12CN(C(=O)c3ccc(Cl)cc3)C3(C#N)CC1CCC23C` (configuration not stated) gave Rango dissoc inh -2.7%, GLA inh pH 4.5 2.4, Rango complex inh 0.1% and miR-21 FLuc -1.2%.
For Cc1onc(-c2c(F)cccc2Cl)c1-c1nnc(-c2cccc3ccccc23)o1 the results were Rango dissoc inh 14.3%, GLA inh pH 4.5 0.3, Rango complex inh -0.4% and miR-21 FLuc -10.4%.
`CCOC(=O)Cn1c(CN2CCOCC2)nc2c1c(=O)n(C)c(=O)n2C` gave Rango dissoc inh 11.4%, GLA inh pH 4.5 0.5, Rango complex inh -2.5% and miR-21 FLuc -1.4%.
Screening CCOC(=O)C1CCCCN1Cc1ccc(F)cc1 (configuration not stated) returned Rango dissoc inh 8.2%, GLA inh pH 4.5 -1.3, Rango complex inh 0.7% and miR-21 FLuc 8.6%.
O=C1CC(c2ccc(S(=O)(=O)NCc3ccccc3)cc2)CN1 (configuration not stated) was read as Rango dissoc inh 9.8%, GLA inh pH 4.5 2.0, Rango complex inh -0.3% and miR-21 FLuc 5.8%.
For CCCCn1nnnc1NCc1cccs1 the results were Rango dissoc inh -8.1%, GLA inh pH 4.5 -1.5, Rango complex inh 1.4% and miR-21 FLuc -8.8%.

Source: PubChem BioAssay (National Center for Advancing Translational Sciences (NCATS))

An excerpt, so the mix of outcomes need not match the whole.
